Bm FixLJ act = B. multivorans fixK reporter activation. B. multivorans fixK-promoter GFP reporter, 18 h; stronger effect = higher value. z-score (test concentration not listed). 29,000 tested, 0.3% active;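 active means replicate mean overnight rise in green fluorescent reporter signal, 3 or more SD over negative controls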;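 further: score is relative to vehicle wells of the plate; 300 nL library stock went into each well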
Starred values were filed as active, the others as inactive; & = joins results of further samples; ! = not active in a repeat.

SMILES | Bm FixLJ act
Cc1ccc(N2CCN(Cc3nnc(-c4ccc5c(c4)OCO5)o3)CC2)c(C)c1 | -0.83
Cc1cc2nn(-c3ccc(F)cc3)nc2cc1NC(=O)c1ccc(OC(C)C)cc1 | -2.1
Cc1onc(-c2ccccc2)c1C(=O)NC1C(=O)N2[C@@H]1SC(C)(C)[C@@H]2C(=O)O (some centres not stated) | -0.02
CC(C)n1ncnc1-c1ccc(C(=O)NCc2csc(N(C)C)n2)cc1 | 0.27
COc1ccc(NC(=O)CN(c2ccc(C)cc2)S(=O)(=O)c2cccs2)cc1 | -0.84
COc1ccc(-n2c(=O)c3ccc(C(=O)NCc4ccc(C)cc4)cc3n(CC(=O)Nc3cccc(F)c3)c2=O)cc1 | -0.11
COc1ccccc1NC(=O)c1sc2nc3c(c(C(F)(F)F)c2c1N)CN(C(C)=O)CC3 | -2.7
CCNc1nc(C)c(C(=O)NC2CCCN(c3cnccn3)C2)s1 (configuration not stated) | -0.98
CCc1ccc(OCC(=O)N(Cc2ccc(C(C)C)cc2)C2CCS(=O)(=O)C2)cc1 (configuration not stated) | 0.68
CCC(=O)N1CCc2[nH]cnc2C12CCN(C(=O)CCc1n[nH]c(C)n1)CC2 | -0.95
O=C(CC1COCCN1C(=O)c1nc2ccccc2[nH]c1=O)N1CC=CC1 (configuration not stated) | -0.25
O=C(Nc1c(O)c2ccccc2oc1=O)c1cccc(F)c1 | -0.51
CSc1ccc(CCNC(=O)CCc2c(C)nc3ncnn3c2C)cc1 | -0.35
Cc1ccn2c(NC(=O)c3cccc(Cl)c3)c(-c3ccccc3)nc2c1 | 1.6
CS(=O)(=O)c1ccc([C@@H](O)[C@@H](CO)NC(=O)C(Cl)Cl)cc1 | -3.5
Cc1ccn2c(Nc3ccc4c(c3)OCCO4)c(-c3ccc(Cl)s3)nc2c1 | -1.2
O=C(Nc1cccnc1)c1cc(-c2cccc(Cl)c2)on1 | 1.2
CCc1cc(C(=O)Nc2sc(C)c(CC)c2C#N)no1 | -0.81
O=C(NCc1noc(-c2cccs2)n1)c1ccc(N2CCCC2=O)cc1 | 0.66
Cc1c2cnn(-c3ccccc3)c(=O)c2c(C)n1C(C)C(=O)Nc1ccc(Br)cc1F (configuration not stated) | -2.6

Ordered by count of non-hydrogen atoms (lowest first): some entries from above
SMILES | Bm FixLJ act
CC(C)n1ncnc1-c1ccc(C(=O)NCc2csc(N(C)C)n2)cc1 | 0.27
Cc1c2cnn(-c3ccccc3)c(=O)c2c(C)n1C(C)C(=O)Nc1ccc(Br)cc1F (configuration not stated) | -2.6
COc1ccccc1NC(=O)c1sc2nc3c(c(C(F)(F)F)c2c1N)CN(C(C)=O)CC3 | -2.7

(next part)
SMILES | Bm FixLJ act
O=C(COCc1nc2ccccc2[nH]1)NCc1nc(-c2cnccn2)n[nH]1 | 0.43
CCCCCOC(=O)CSc1nc2sc3c(c2c(=O)n1Cc1ccccc1)CC(C)(C)OC3 | -0.32
COc1ccc(N2CCN(c3oc(/C=C/c4ccc(F)cc4)nc3C#N)CC2)cc1 | -1.5
CC(=O)Nc1ccc(S(=O)(=O)NC2(C(F)(F)F)NC(=O)N(c3ccc(C)cc3)C2=O)cc1 (configuration not stated) | 0.16
C[C@H]1[C@H](NC(=O)/C(=N\OC(C)(C)C(=O)O)c2csc(N)n2)C(=O)N1S(=O)(=O)O | -4.1
CN(C(=O)c1cc2c(Cl)nc3ccccc3c2s1)c1cccc(C(F)(F)F)c1 | 0.1
Cc1cc(Cl)ccc1OCC(=O)Nc1c(Cl)ccc2nsnc12 | -1.4
CCc1ccc(NS(=O)(=O)c2ccc3[nH]cc(C(=O)N(C)Cc4ccco4)c(=O)c3c2)cc1 | -1.1
O=C(Cn1c(=O)n(-c2ccccc2)c(=O)c2c3c(sc21)CCCC3)Nc1cccc(F)c1 | -1
O=C(Nc1ccc(Br)cc1)C1CCN(S(=O)(=O)c2cccc3nsnc23)CC1 | -0.45
CCOc1ccc(CCNC(=O)c2cc3c(=O)n(C)c4ccccc4c3s2)cc1OCC | -1.1
NC(CO)C(=O)NNCc1ccc(O)c(O)c1O (configuration not stated) | 3*!
Cc1cc(CC2CN(C(=O)CCc3ccccc3F)CC2O)on1 (configuration not stated) | 0.27
CCOc1ccc(C(=O)NCCSc2c(C)[nH]c3ccccc23)cc1OCC | -2.7
Cc1cccc(OCCCCn2c(C3CC(=O)N(c4ccccc4Cl)C3)nc3ccccc32)c1 (configuration not stated) | -1.9
CCOc1ccc(-c2cnc(NCc3ccc(OC)cc3OC)n2C)cc1 | -2.3
Cn1c(Cn2ccnc2)nnc1C1CCCN(CC=Cc2ccccc2)C1 (configuration not stated) | 0.71
CCN(CC)CCCNC(=O)c1cn(CC(C)C)c(=O)c2c1c1ccccc1n2C | -0.58
O=C1Nc2ccc(S(=O)(=O)Nc3ccccc3O)c3cccc1c23 | 0.99
CCn1cc(C(=O)NCCc2ccc(Cl)cc2)c(=O)c2cc(S(=O)(=O)N3CCCCCC3)ccc21 | -1.6
COc1ccc(CN2CC[C@@]3(C(=O)O)CCCN(C)[C@H]3C2)cc1Cl | -0.64
CS(=O)(=O)CCNC(=O)C1CCN(C2CCOCC2)CC1 | -1.6
COc1ccc(-c2cc(C(=O)Nc3sc4c(c3C#N)CCCC4)no2)cc1OC | -0.43
O=C(O)CCCCC1SCC2NC(=O)NC21 (configuration not stated) | -1.1
CCOc1ccc(-c2nc3c(c(SCC(=O)N4CCCCC4)n2)Cc2ccccc2O3)cc1 | -1.4
Cc1cccc(-n2c(Cc3ccccc3)nnc2SCc2nc(-c3cccs3)no2)c1 | -0.6
Cc1ccc(C)c(N2CCN(C(=O)CCc3nnc4n(CC(C)C)c(=O)c5ccccc5n34)CC2)c1 | -0.93
COc1ccc(C)cc1NC(=O)CCNC(=O)Cn1ccc2ccccc2c1=O | 1.1
CCc1noc(NC(=O)Cc2c(C)nn(-c3ccccc3)c2C)c1C | -0.96
COCCNC(=O)CSc1nc(-c2ccc(C)cc2)[nH]c1-c1ccc(OC)cc1 | -0.41
C#CC(C)(CC)NC(=O)Cn1nnc(-c2ccc(OCc3ccccc3Cl)cc2)n1 (configuration not stated) | -0.02
Cc1nc(C)c(-c2cccc(C(=O)N(C)CCn3ccnc3C)c2)s1 | -3.5
O=C(CCc1ccccc1Cl)NC1C2CCC1CN(C(=O)C1CCOC1)C2 (configuration not stated) | 2.5
CCN(CCNC(=O)c1cccc(-c2ccc(NC)nn2)c1)c1cccc(C)c1 | -0.28
CCc1ccc(C(=O)N2CC3COC[C@]3(C(=O)NCCn3ccc(C)n3)C2)s1 (some centres not stated) | 0.29
COc1ccc(CCNC(=O)c2ccc3c(c2)N(Cc2ccccc2)CCS3)cc1OC | -1.1
Cc1c2cnn(CC(=O)NCc3ccc(F)cc3)c(=O)c2c(C)n1Cc1cccc(Cl)c1 | -3.5
CC1CCCN(C(=O)CSc2c3c(nc4cc(Cl)ccc24)CCCC3)C1 (configuration not stated) | -1.6
CCOc1ccc(NC(=O)c2oc3ccccc3c2NC(=O)c2cc3ccccc3o2)cc1 | -0.45
CCOc1ccc(CN2C(=O)c3ccccc3Sc3ccc(C(=O)NC)cc32)cc1 | -0.86
CCC(C(=O)Nc1ccccc1C(=O)OC)n1c(C)c2cnn(-c3ccccc3)c(=O)c2c1C (configuration not stated) | -1.3
CCOc1ccc(NC(=O)Cn2nnc(C(=O)NCCc3ccccc3)c2N)cc1 | -2.2
Cc1cc(C)cc(NS(=O)(=O)c2ccc3[nH]cc(C(=O)N(C)Cc4ccccc4)c(=O)c3c2)c1 | 0.72
O=C(NCc1ccccc1Cl)C1CCN(C(=O)CN2CCCCCC2)CC1 | -0.96
COc1cc(Nc2nn(-c3ccc(OC(F)(F)F)cc3)nc2C(C)=O)cc(OC)c1 | -1.2
COc1cccc(C(=O)N2CC[C@@]3(C(=O)O)CCCN(C)[C@H]3C2)c1 | -1.5
CCc1nn(CC(=O)N2CCCCC2)c(=O)c2cc3sc(C)cc3n12 | -0.54
COc1ccc(C(C)(C)C)cc1S(=O)(=O)N1CCC(O)C(C(=O)O)C1 (configuration not stated) | -0.44
O=C(C1CCC1)N1CCc2cc(S(=O)(=O)N3CCN(c4ccccc4)CC3)ccc21 | -1.6
Cc1cccc(NC(=O)Cn2cc(C(=O)c3ccccc3)c3ccccc32)c1 | 2.5
Cc1oc(-c2cccc(Cl)c2)nc1CN1CCC(C(=O)NCCCN2CCN(c3cccc(Cl)c3)CC2)CC1 | -1.9
Cc1ccc(C2CC(=O)n3nc(-c4ccc(F)cc4)nc3S2)cc1 (configuration not stated) | 0.02
COc1ccc(-c2cc3nc(C)c(CCC(=O)NCCc4ccc(Cl)cc4)c(C)n3n2)c(OC)c1 | -0.92
CCc1ccc(NC(=O)Cn2c(=O)n(Cc3ccco3)c(=O)c3cccnc32)cc1 | -1.1
CCNC(=O)CC1C(=O)N(c2ccc(C)cc2)C(=O)N1CCC(C)C (configuration not stated) | -0.34
CC(C)c1cc(C(=O)N2CCCN(CC(O)c3ccccc3)CC2)on1 (configuration not stated) | 1
CC1CCCCN1C1CN(C(=O)NCc2cccc(-n3cccn3)c2)C1 (configuration not stated) | -0.58
Cn1c(=O)n(C)c2cc(N3CCOCC3)c(NS(=O)(=O)c3ccc(Cl)cc3)cc21 | -0.41
CCCN(C(=O)c1cc2c(s1)-c1ccccc1SC2)c1ccccc1F | 0.42
Cc1ccccc1CNCc1c(C(=O)O)c(C)n(Cc2ccc(F)cc2Cl)c1C | -0.6

Going on with the list:
SMILES | Bm FixLJ act
Cc1ccc(NC(=O)N(Cc2cn(C)c3ccccc23)C2CCCCC2)cc1C | -1.3
CCCC(=O)Nc1cc(C(=O)N(CC)Cc2ccncc2)ccc1C | 1.9
Oc1ccc(NCc2ccc(OCc3ccccc3)cc2)cc1 | -0.34
CC(C)(C)NCC(O)c1ccc(O)c(CO)c1 (configuration not stated) | -0.92&-0.17
Cc1ccc2nc(NCc3ccccc3)c3nncn3c2c1 | -1.4
COc1ccccc1N1CCN(C(=O)C2CCN(S(=O)(=O)c3cnc[nH]3)CC2)CC1 | 0.56
CC(C)C1CCC(C(=O)N[C@@H](Cc2ccccc2)C(=O)O)CC1 (some centres not stated) | 0.2
Cc1cccc(C(NC(=O)CN2CCN(C)C2=O)C(=O)O)c1 (configuration not stated) | 0.08
O=C1COc2ccc(-c3cc(-c4ccccc4)c4c(n3)-c3ccccc3OC4)cc2N1 | 0.21
COc1ccc(C(=O)Nc2cc3cc(Cl)ccc3oc2=O)cc1OC | -1.4
Cc1nc2sccn2c(=O)c1S(=O)(=O)Nc1ccc(N2CCN(S(C)(=O)=O)CC2)cc1 | -0.85
O=C(O)CCn1c(=O)c2cccn2c2cccnc21 | -0.95
COc1cc(OC)c(NC(=O)N2CCc3cc(S(=O)(=O)N4CCC(C)CC4)ccc32)cc1Cl | -0.51
O=C(c1ccccc1-n1cncn1)N1CCCN(CC2CC=CCC2)CC1 (configuration not stated) | -0.23
CC1=CCN(C(=O)Nc2ccccc2OCCc2ccccn2)CC1 | -0.8
Cc1ccc(CNC(=O)CN(c2cc(C)cc(C)c2)S(=O)(=O)c2c(C)[nH]c(=O)[nH]c2=O)cc1 | -0.54
Cc1ccc(C(=O)Nc2ccc3oc(-c4cccnc4)nc3c2)c(Cl)c1 | -0.97
CCOc1ccc2c(c1)c(=O)c(C(=O)c1ccc(CC)cc1)cn2CC(=O)Nc1ccccc1C | -1
CCC(CC)NC(=O)N1CCNC(=O)C1c1cccc(F)c1 (configuration not stated) | 1.1
CCC(C)NC(=O)CCc1c(C)nc2nc(-c3cc(OC)cc(OC)c3)nn2c1C (configuration not stated) | -0.17
CCOc1ccccc1N(CC)C(=O)Cn1ncc2c1-c1ccccc1OC2 | -0.99
Cc1cccc(Nc2nnc(-c3ccc(C)c(S(=O)(=O)N4CCN(C)CC4)c3)c3ccccc23)c1 | -0.69
COc1ccc(Cn2cc(C(=O)c3ccc(F)cc3)c(=O)c3cc4c(cc32)OCCO4)cc1 | -0.59
CCCn1cc(C(=O)N2CCc3[nH]nc(CC)c3C2)c(C)n1 | -1.3
C=CCCCCCCCCC(=O)O | -0.73
CC(Oc1ccccc1)C(=O)Nc1ccc(OCc2cc(=O)n3ccsc3n2)cc1 (configuration not stated) | -1.6
COc1ccc(OCC(=O)Nc2ccc(-c3nc4cc(C)c(C)cc4o3)cc2)cc1 | -1.1
COc1cccc(N2CCN(C(=O)C3CCN(S(=O)(=O)c4ccc5c(c4)oc(=O)n5C)CC3)CC2)c1 | -0.75
COc1cc(C2c3c(oc4ccccc4c3=O)C(=O)N2Cc2ccccc2Cl)ccc1O (configuration not stated) | -0.84
Cc1cccc2[nH]c(C3CCCN(C(=O)c4ccn(C)n4)C3)nc12 (configuration not stated) | -1.3
Cc1ccc(Cn2cc(C(=O)c3ccc(C)cc3)c(=O)c3ccc(C)nc32)cc1 | -0.55
COc1ccc(-n2nc(C)c3c(C(F)(F)F)cc(-c4cccnc4)nc32)cc1 | 0.11
CCCCOc1ccc(C2=NC(c3cccs3)=Nc3ccc(OC)cc3N2)cc1 | 2.8
O=C(c1cccc(S(=O)(=O)NC2CCOCC2)c1)N1CCCCCCC1 | 0.93
Cc1ccc(CNC(=O)c2ccc(Cn3c(=O)c4ccccc4n(CC(=O)Nc4ccc(C)cc4C)c3=O)cc2)cc1 | -0.34

7 successive entries out of the list so far, quoted:
SMILES | Bm FixLJ act
Cc1ccc(N2CCN(Cc3nnc(-c4ccc5c(c4)OCO5)o3)CC2)c(C)c1 | -0.83
Cc1cc2nn(-c3ccc(F)cc3)nc2cc1NC(=O)c1ccc(OC(C)C)cc1 | -2.1
Cc1onc(-c2ccccc2)c1C(=O)NC1C(=O)N2[C@@H]1SC(C)(C)[C@@H]2C(=O)O (some centres not stated) | -0.02
CC(C)n1ncnc1-c1ccc(C(=O)NCc2csc(N(C)C)n2)cc1 | 0.27
COc1ccc(NC(=O)CN(c2ccc(C)cc2)S(=O)(=O)c2cccs2)cc1 | -0.84
COc1ccc(-n2c(=O)c3ccc(C(=O)NCc4ccc(C)cc4)cc3n(CC(=O)Nc3cccc(F)c3)c2=O)cc1 | -0.11
COc1ccccc1NC(=O)c1sc2nc3c(c(C(F)(F)F)c2c1N)CN(C(C)=O)CC3 | -2.7

High-throughput results (PubChem)

An excerpt; rates above refer to the full screens.
